Vaccinia inh: blocks a specific stage of Vaccinia orthopoxvirus infection, primary screen, cell-based, single point; 89,000 tested, 0.01% active; Vaccinia-infected cells, mCherry/Venus stage reporter fluorescence; stronger effect = lower value; some inactives read as strong as hits; AID 1053133, 2014; activity change (mCherry), % (no concentration beside the values);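 active means mCherry past -33% and 40 or more points under the early reporter, replicates agreeing; inconclusive means past -33% without that gap or agreement; tested in A549 cells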;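 further: scaled between vehicle wells and reference inhibitor wells; 23 nL library stock went into each well; one replicate is shown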
Vaccinia inh Venus: further read-out of Vaccinia inh, marked with its call; activity change (Venus), %; measured here: Venus reporter, other viral stage;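 negative = less Venus signal; first of two replicates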
* = called active by the depositor; ? = inconclusive; / = no result given; & = joins results of further samples.

The opening 5 records as a preview:
Molecule | Vaccinia inh | Vaccinia inh Venus
CN1CCN(C(=O)C[C@H]2CC[C@@H](NS(=O)(=O)c3cccc(F)c3)[C@H](CO)O2)CC1 | -4 | 1
COc1cccc(C(=O)Nc2ccc3c(c2)C(=O)N(C)C[C@@H](OC)[C@@H](C)CN(C(=O)C2CCCC2)[C@H](C)CO3)c1 | -12 | -8
Cc1noc(C)c1S(=O)(=O)N(C)C[C@@H]1Oc2ccc(NC(=O)CCCN(C)C)cc2C(=O)N([C@@H](C)CO)C[C@@H]1C | 2 | 2
C[C@@H]1CCCCO[C@H](CN(C)S(=O)(=O)c2ccccc2)[C@@H](C)CN([C@H](C)CO)C(=O)c2cc(NC(=O)c3ccncc3)ccc2O1 | 6 | -4
COc1ccc(NC(=O)Nc2ccc3c(c2)C(=O)N([C@@H](C)CO)C[C@H](C)[C@H](CN(C)C(=O)c2ccccc2)OCCCC[C@@H](C)O3)cc1 | 10 | 1

The listing (from the top)
Molecule | Vaccinia inh | Vaccinia inh Venus
CN1CCN(C(=O)C[C@H]2CC[C@@H](NS(=O)(=O)c3cccc(F)c3)[C@H](CO)O2)CC1 | -4 | 1
COc1cccc(C(=O)Nc2ccc3c(c2)C(=O)N(C)C[C@@H](OC)[C@@H](C)CN(C(=O)C2CCCC2)[C@H](C)CO3)c1 | -12 | -8
Cc1noc(C)c1S(=O)(=O)N(C)C[C@@H]1Oc2ccc(NC(=O)CCCN(C)C)cc2C(=O)N([C@@H](C)CO)C[C@@H]1C | 2 | 2
C[C@@H]1CCCCO[C@H](CN(C)S(=O)(=O)c2ccccc2)[C@@H](C)CN([C@H](C)CO)C(=O)c2cc(NC(=O)c3ccncc3)ccc2O1 | 6 | -4
COc1ccc(NC(=O)Nc2ccc3c(c2)C(=O)N([C@@H](C)CO)C[C@H](C)[C@H](CN(C)C(=O)c2ccccc2)OCCCC[C@@H](C)O3)cc1 | 10 | 1
Cc1noc(C)c1S(=O)(=O)Nc1ccc2c(c1)C(=O)N([C@H](C)CO)C[C@H](C)[C@@H](CN(C)C(=O)NC1CCCCC1)O2 | 5 | 5
C[C@@H]1CN([C@H](C)CO)C(=O)c2cc(NC(=O)Cc3cn(C)c4ccccc34)ccc2O[C@@H]1CN(C)CC1CC1 | -2 | 2
C[C@@H]1CCCCO[C@H](CN(C)S(=O)(=O)c2ccccc2)[C@H](C)CN([C@@H](C)CO)C(=O)c2cc(NC(=O)Nc3cccc4ccccc34)ccc2O1 | 32 | 18
C[C@H](O)C#Cc1ccc2c(c1)O[C@H](CN(C)C(=O)C1CC1)[C@@H](C)CN([C@@H](C)CO)S2(=O)=O | 23 | 9
CCCC(=O)Nc1ccc2c(c1)C(=O)N(C)[C@@H]1CC[C@@H](CC(=O)NCC3CCCCC3)O[C@H]1CO2 | 7 | 5
CCCC(=O)N1CC2(CCN(S(=O)(=O)CC)CC2)c2c(n(C)c3cc(OC)ccc23)[C@@H]1CO | -14 | -9
CCCNC(=O)N1CC2(C1)[C@H](c1ccccc1)[C@@H](CO)N2C(=O)c1ccncc1 | 9 | 1
C[C@H](CO)N1C[C@H](C)[C@@H](CN(C)C(=O)Cc2cccnc2)Oc2ncc(-c3cccnc3)cc2C1=O | 6 | 4
C[C@@H]1CN([C@H](C)CO)C(=O)c2cccc(NS(=O)(=O)c3cn(C)cn3)c2O[C@@H]1CN(C)S(=O)(=O)c1ccccc1 | 12 | 14
CO[C@H]1CN(C)C(=O)c2cc(NC(=O)c3nc4ccccc4s3)ccc2OC[C@@H](C)N(Cc2ccncc2)C[C@@H]1C | -28 | -17
O=C(NC1CCCCC1)[C@@H]1[C@@H](CO)[C@@H]2Cn3c(cccc3=O)[C@@H]2N1CC1CCCCC1 | 2 | -4
C[C@H](CO)N1C[C@H](C)[C@@H](CN(C)C(=O)Nc2ccc(-c3cccs3)cc2)OCc2cnnn2CCCC1=O | -25 | -14
Cc1cccc(S(=O)(=O)N(C)C[C@H]2OCc3ccccc3-c3c(n(C)c4ccccc34)C(=O)N([C@@H](C)CO)C[C@H]2C)c1 | -32 | -25
O=C(C[C@H]1CC[C@H]2[C@@H](COC[C@H](O)CN2C(=O)c2cnccn2)O1)N1CCN(c2ccccc2)CC1 | 1 | 9
C[C@H]1CN([C@@H](C)CO)C(=O)c2cccc(NS(=O)(=O)c3cn(C)cn3)c2O[C@@H]1CN(C)C(=O)Nc1ccc2c(c1)OCO2 | 1 | 4
COc1ccc(CN(C)C[C@H]2Oc3ccc(NC(=O)Cn4cnnn4)cc3CC(=O)N([C@H](C)CO)C[C@@H]2C)cc1 | 5 | 3
O=C(c1cccc(F)c1)N1C[C@@H]2[C@H](c3ccccc31)[C@H](CO)N2C(=O)Cc1ccccc1 | 23 | 9
COc1cccc(S(=O)(=O)N(C)C[C@H]2OCc3ccccc3-c3c(n(C)c4ccccc34)C(=O)N([C@H](C)CO)C[C@H]2C)c1 | -23 | -31
CCC(=O)N(C)C[C@@H]1Oc2cc(-c3ccc(OC)cc3)ccc2S(=O)(=O)N([C@@H](C)CO)C[C@@H]1C | -12 | -5
O=C(CN1CCOCC1)NCC[C@H]1CC[C@H](NC(=O)c2ccccc2F)[C@H](CO)O1 | 13 | 4
Cc1cc(C(=O)Nc2cccc3c2O[C@H](CN(C)C(=O)NC2CCCCC2)[C@H](C)CN([C@H](C)CO)C3=O)n(C)n1 | 1 | 3
CNC[C@H]1Oc2ccc(N(C)C)cc2C(=O)N([C@@H](C)CO)C[C@@H]1C | 2 | 6
CCC(=O)N1CC2(CCN(Cc3ccccc3Cl)CC2)c2c([nH]c3cc(OC)ccc23)[C@@H]1CO | -25 | -25
C[C@@H]1CN([C@@H](C)CO)C(=O)c2cc(NC(=O)Cc3ccccc3)ccc2O[C@@H](C)CCCCO[C@@H]1CN(C)C(=O)Nc1ccccc1 | 11 | 10
O=C(NCc1cccc(F)c1)[C@@H]1[C@@H](CO)[C@@H]2Cn3c(ccc(-c4cccnc4)c3=O)[C@H]1N2CC1CC1 | 8 | 7
CCCN1[C@@H]2Cn3c(ccc(-c4ccncc4)c3=O)[C@H]1[C@@H](C(=O)NCCc1cn(C)cn1)[C@@H]2CO | 14 | 8
C[C@H]1CN([C@@H](C)CO)C(=O)Cc2cc(NC(=O)Cc3ccccc3)ccc2O[C@H]1CN(C)S(=O)(=O)c1ccccc1 | -9 | -2
O=S(=O)(c1ccccc1)N1CCCCN2[C@H](CO)[C@H](c3ccc(-c4ccccc4F)cc3)[C@H]2C1 | -28 | -29
C[C@H](CO)N1C[C@H](C)[C@H](CN(C)C(=O)Nc2ccc(F)cc2)Oc2cc(-c3ccncc3)ccc2S1(=O)=O | 6 | 3
C[C@H](CO)N1C[C@H](C)[C@@H](CN(C)C(=O)c2ccccc2)OCc2cnnn2CCCC1=O | 10&8 | 3&4
C[C@H](CO)N1C[C@H](C)[C@H](CN(C)S(=O)(=O)c2ccc(F)cc2)Oc2ccc(NS(=O)(=O)c3cccs3)cc2CC1=O | 7 | 6
COCC#Cc1cnc2c(c1)C(=O)N([C@H](C)CO)C[C@H](C)[C@@H](CN(C)Cc1ccc(F)cc1)O2 | 11 | 3
C[C@@H]1CN([C@H](C)CO)C(=O)Cc2cc(NC(=O)Nc3ccc4c(c3)OCO4)ccc2O[C@@H]1CN(C)Cc1ccc(C(=O)Nc2ccccc2N)cc1 | 1 | 0
COc1cccc(C(=O)Nc2ccc3c(c2)C(=O)N(C)C[C@@H](OC)[C@@H](C)CN(C)[C@H](C)CO3)c1 | 1 | 5
CNC[C@H]1Oc2ccc(NC(=O)Nc3ccc4c(c3)OCO4)cc2C(=O)N([C@@H](C)CO)C[C@@H]1C | 3 | 3
C[C@H]1CN([C@@H](C)CO)C(=O)Cc2cc(NS(=O)(=O)c3cccs3)ccc2O[C@H]1CN(C)C(=O)Nc1ccc(F)cc1 | 34 | 32
O=C([C@@H]1[C@@H](CO)[C@@H]2Cn3c(cccc3=O)[C@H]1N2Cc1cocn1)N1CCCCC1 | 2 | 8
C[C@H](CO)N1C[C@H](C)[C@H](CN(C)Cc2ccc(C(=O)O)cc2)OCCCC[C@H](C)Oc2ccc(NC(=O)CCC(F)(F)F)cc2C1=O | 9 | 6
CC(C)C#Cc1ccc2c(c1)O[C@H](CN(C)C(=O)c1cnccn1)[C@H](C)CN([C@@H](C)CO)S2(=O)=O | 9 | 8
C[C@@H]1CN([C@H](C)CO)C(=O)c2cc(NS(=O)(=O)c3cn(C)cn3)ccc2O[C@@H]1CN(C)C(=O)NC1CCCCC1 | -8 | 0
CNC[C@@H]1Oc2ccc(NC(=O)C3CCCCC3)cc2C(=O)N([C@@H](C)CO)C[C@H]1C | 9 | 1
COc1ccc(NC(=O)Nc2cccc3c2O[C@H](CN(C)Cc2ccc(Oc4ccccc4)cc2)[C@H](C)CN([C@@H](C)CO)C3=O)cc1 | -28 | -24
Cc1noc(C)c1S(=O)(=O)N(C)C[C@H]1Oc2ccc(NC(=O)Cn3cnnn3)cc2CC(=O)N([C@@H](C)CO)C[C@@H]1C | -6 | 1
C/C=C/c1cccc(-c2nc(C(=O)Nc3nccs3)cc3c2[C@@H](CCO)N(C(=O)NC(C)C)C3)c1 | -11 | -2
Cc1ccccc1S(=O)(=O)N1CCCCN2[C@@H](CO)[C@@H](c3ccc(C#CCN(C)C)cc3)[C@@H]2C1 | ? | /
CCCNC(=O)Nc1ccc2c(c1)OC[C@H](C)N(C(=O)c1ccccc1F)C[C@H](C)[C@@H](OC)CN(C)C2=O | 6 | 6
COc1ccc(C#Cc2ccc3c(c2)O[C@@H](CN(C)C(=O)c2ccccn2)[C@H](C)CN([C@@H](C)CO)S3(=O)=O)cc1 | ? | /
O=C(C[C@H]1CC[C@H]2[C@@H](COC[C@H](O)CN2C(=O)c2ccncc2)O1)Nc1ccc(-c2ccccc2)cc1 | -15 | -8
CO[C@@H]1CN(C)C(=O)c2cc(NC(C)=O)ccc2OC[C@H](C)N(C(=O)c2ccc(F)cc2)C[C@H]1C | 8 | 13
Cc1noc(C)c1NC(=O)Nc1ccc2c(c1)CC(=O)N([C@@H](C)CO)C[C@@H](C)[C@@H](CN(C)C(=O)Nc1ccc3c(c1)OCO3)O2 | -7 | -1
CC(=O)N1CC[C@H]2[C@H](CO)Nc3ccc(C#Cc4ccccc4F)cc3[C@H]21 | 1 | 8
O=C(NC1CCCCC1)N1CC(=O)N2[C@H](C1)[C@H](c1ccc(-c3ccccc3)cc1)[C@@H]2CO | -13 | -4
C[C@@H]1CN([C@H](C)CO)C(=O)Cc2cc(NC(=O)Cc3ccccc3)ccc2O[C@H]1CN(C)S(=O)(=O)c1ccc(F)cc1 | 17 | 6
COc1cc2c(cc1O)C=[N+](Cc1cccc(OC(F)(F)F)c1)CC2 | 3 | -6
Cc1ccc(S(=O)(=O)Nc2ccc3c(c2)C(=O)N([C@@H](C)CO)C[C@H](C)[C@@H](CN(C)C(=O)Nc2cccc4ccccc24)O3)cc1 | 28 | 33

Three of these compounds in another layout:
Values run as follows: Vaccinia inh | Vaccinia inh Venus
> Cc1noc(C)c1NC(=O)Nc1ccc2c(c1)CC(=O)N([C@@H](C)CO)C[C@@H](C)[C@@H](CN(C)C(=O)Nc1ccc3c(c1)OCO3)O2
  -7 | -1
> O=C(NC1CCCCC1)N1CC(=O)N2[C@H](C1)[C@H](c1ccc(-c3ccccc3)cc1)[C@@H]2CO
  -13 | -4
> Cc1noc(C)c1S(=O)(=O)N(C)C[C@H]1Oc2ccc(NC(=O)Cn3cnnn3)cc2CC(=O)N([C@@H](C)CO)C[C@@H]1C
  -6 | 1

More results
Molecule | Vaccinia inh | Vaccinia inh Venus
NC(=O)[C@H]1[C@@H]2C(=O)O[C@@H](c3ccccc3)[C@@H](c3ccccc3)N2[C@@H](c2ccccc2OCCO)[C@]12C(=O)Nc1ccccc12 | ? | /
COc1ccc(S(=O)(=O)Nc2cccc3c2O[C@@H](CN(C)S(C)(=O)=O)[C@@H](C)CN([C@H](C)CO)C3=O)cc1 | -3 | 9
CC(C)NC(=O)Nc1ccc2c(c1)C(=O)N([C@H](C)CO)C[C@H](C)[C@H](CN(C)Cc1ccc(Cl)c(Cl)c1)OCCCC[C@@H](C)O2 | ? | /
COCC(=O)Nc1ccc2c(c1)C(=O)N(C)[C@H]1CC[C@@H](CC(=O)NCC(F)(F)F)O[C@@H]1CO2 | 9 | 2
O=C(C[C@H]1C[C@@H]2c3cc(NS(=O)(=O)c4ccccc4)ccc3O[C@@H]2[C@H](CO)O1)NC1CCCCC1 | 0 | 8
O=C(C1CC1)N1CC2(C1)[C@@H](c1ccccc1)[C@@H](CO)N2CC1CCCC1 | -28 | -19
CO[C@H]1CN(C)C(=O)c2ccc(NC(=O)Nc3cccc(F)c3)cc2OC[C@H](C)N(C(=O)C2CC2)C[C@@H]1C | 10 | 10
O=C1CN(S(=O)(=O)c2ccccc2)C[C@H]2[C@H](c3ccc(C4=CCCC4)cc3)[C@@H](CO)N12 | 0 | -1
COC(=O)C[C@H]1CC[C@H]2[C@@H](COC[C@H](O)CN2C(=O)Nc2cccc(F)c2)O1 | -5 | -4
Cc1noc(C)c1S(=O)(=O)N(C)C[C@H]1Oc2ccc(NS(=O)(=O)c3cccs3)cc2CC(=O)N([C@H](C)CO)C[C@H]1C | 14 | 8
O=C(N[C@@H]1CC[C@H](CCNS(=O)(=O)c2cccc(Cl)c2)O[C@@H]1CO)c1ccc(F)cc1 | 3 | -1
CN(C)CC#Cc1ccc([C@H]2[C@H](CO)N3CCCCN(C(=O)Nc4ccc(F)cc4)C[C@@H]23)cc1 | -1 | 0
CCCNC(=O)N1[C@H](C#N)[C@@H](c2ccccc2)[C@H]1CO | 15 | 7
COc1ccc(CN(C)C[C@@H]2OCCCC[C@H](C)Oc3ccc(NS(=O)(=O)c4ccc(C)cc4)cc3C(=O)N([C@H](C)CO)C[C@@H]2C)cc1 | ? | /
COC(=O)C[C@@H]1CC[C@H]2[C@@H](COC[C@H](O)CN2S(=O)(=O)c2cn(C)cn2)O1 | 3 | -1
Cc1noc(C)c1NC(=O)Nc1ccc2c(c1)CC(=O)N([C@H](C)CO)C[C@H](C)[C@H](CN(C)Cc1ccc(Cl)c(Cl)c1)O2 | -12 | -7
C[C@@H]1CN([C@H](C)CO)C(=O)c2cc(C#CCN(C)C)cnc2O[C@H]1CN(C)C(=O)Cc1ccncc1 | 22 | 18

This is a subset; the hit share may differ from the screen's.
